Source: PubChem (National Center for Advancing Translational Sciences (NCATS))
HPGD block = qHTS Assay for Inhibitors of HPGD (15-Hydroxyprostaglandin Dehydrogenase); 4.3% of 150,000 active; 15-hydroxyprostaglandin dehydrogenase [NAD(+)] (Homo sapiens), P15428; Potency, µM, inactives show at the highest dose activity change, negative = inhibition, actives largely listed as inhibitors; purified HPGD, NADH fluorescence kinetic, PGE2 substrate; active = well fitted inhibition curve with a large enough effect (not every such curve was filed as active); inconclusive = small, poorly fitted or top-dose-only effect, or another doubt; inactive = no such curve, though single readings can be large or run the other way;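 further: top concentration of the series not given in the record; plate controls included wells without enzyme; inactives centre near -10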
Target sequence (P15428 whole entry, looked up): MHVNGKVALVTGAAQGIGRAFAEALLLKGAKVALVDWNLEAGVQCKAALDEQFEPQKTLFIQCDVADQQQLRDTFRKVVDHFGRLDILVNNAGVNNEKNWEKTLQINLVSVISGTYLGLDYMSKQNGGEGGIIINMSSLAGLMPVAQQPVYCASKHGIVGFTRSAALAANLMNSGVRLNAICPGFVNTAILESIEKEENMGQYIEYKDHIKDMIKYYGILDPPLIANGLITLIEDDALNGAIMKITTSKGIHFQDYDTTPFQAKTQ
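20 nM HPGD preincubated 15 min at room temperature with compound in 50 mM Tris-HCl pH 8, 0.01% Tween 20. Started with 1 mM NAD+ and 30 uM prostaglandin E2; NADH fluorescence (360/450 nm) read 5 times over 30-s intervals, last minus first.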
* = called active by the depositor; ? = inconclusive. On the % scale 0 is the no-effect control and ±100 the full control effect; potency means the concentration at half of the fitted maximal effect.

molecule: CCOC(=O)c1cnc(SCC(=O)NCc2ccco2)nc1N
- HPGD block: -15.5%

molecule: O=C(Nc1ccc(Cl)c(Cl)c1)N1CCC(N2CCCCC2)CC1
- HPGD block: -8.6%

molecule: Cc1cc(C)cc(N2CCCn3c2nc2c3c(=O)n(CCN3CCOCC3)c(=O)n2C)c1
- HPGD block: 1.4%

molecule: CC(C)NC(=O)CC1Nc2c3ccccc3nc(=S)n2C1=O (stereo not drawn)
- HPGD block: -12.1%

molecule: O=C(NCCN1CCOCC1)c1cc2ccccc2[nH]1
- HPGD block: -26.3%

molecule: Cc1ccc(Cl)cc1N1CCN(C(=O)CCS(=O)(=O)c2cccc3nonc23)CC1
- HPGD block: -6.7%

molecule: COCCNC(=O)CN(C(=O)CCC(=O)Nc1cc(C)on1)c1cccc(C)c1C
- HPGD block: -17.0%

molecule: CCOC(=O)C1=CC(OC(CC)CC)C(NC(C)=O)C(N)C1 (stereo not drawn)
- HPGD block: -9.5%

molecule: COc1ccc(/C=C/C(=O)c2ccncc2)c2ccccc12
- HPGD block: ?

molecule: CCOC(=O)C1CCN(CC(=O)Nc2cc(C)nn2-c2nc3ccccc3s2)CC1
- HPGD block: -0.1%

molecule: Cc1c(CCO)c(=O)n(-c2ccccc2)n1S(=O)(=O)c1ccc(F)cc1
- HPGD block: -0.4%

molecule: COc1cccc(C2CC(c3cccs3)=NN2C(=O)CSc2nc3ccccc3s2)c1OC (stereo not drawn)
- HPGD block: ?

molecule: CCCCNC(=S)N/N=C/c1ccccc1F
- HPGD block: -17.1%

molecule: O=C1CC(c2ccccc2)n2ncnc2N1 (stereo not drawn)
- HPGD block: -8.7%

molecule: COC(C)(C)[C@]12CC(O)(C(C)C)ON1[C@H]1CCCCC1N2O (stereo partly drawn)
- HPGD block: -5.5%

molecule: Cc1ccc(CN2C(=O)c3ccccc3C2C(=O)NCC2CCCO2)cc1 (stereo not drawn)
- HPGD block: -15.9%

molecule: O=C(CSc1nnc(-c2ccc(OC(F)F)cc2)o1)NC(=O)NCc1ccco1
- HPGD block: -13.9%

molecule: Cc1cc(NS(=O)(=O)c2ccc(NC(=O)COc3ccc(Cl)cc3)cc2)no1
- HPGD block: -10.2%

molecule: O=C(CN(C1CCCCC1)S(=O)(=O)c1ccc(Cl)cc1)NCCCO
- HPGD block: -6.8%

molecule: O=C(NC(=S)NCc1ccccc1)c1ccc2c(c1)OCO2
- HPGD block: -14.8%

The closing 4 compounds of the part before lead into the next:
molecule: O=C(CSc1nnc(-c2ccc(OC(F)F)cc2)o1)NC(=O)NCc1ccco1
- HPGD block: -13.9%

molecule: Cc1cc(NS(=O)(=O)c2ccc(NC(=O)COc3ccc(Cl)cc3)cc2)no1
- HPGD block: -10.2%

molecule: O=C(CN(C1CCCCC1)S(=O)(=O)c1ccc(Cl)cc1)NCCCO
- HPGD block: -6.8%

molecule: O=C(NC(=S)NCc1ccccc1)c1ccc2c(c1)OCO2
- HPGD block: -14.8%

molecule: Cc1c(NC2=C(Cl)C(=O)N(c3ccccc3)C2=O)c(=O)n(-c2ccccc2)n1C
- HPGD block: -21.7%

molecule: CCn1cc(S(=O)(=O)CC(=O)Nc2ccc3c(c2)OCCO3)c2ccccc21
- HPGD block: -2.4%

molecule: Cc1ccnc(NC(=S)NC(=O)c2ccco2)c1
- HPGD block: -10.8%

molecule: CCc1ccccc1OCCOc1ccc(C)cc1OC
- HPGD block: -24.5%

molecule: O=C(Nc1ccc(F)cc1)c1cccc(N2C(=O)C3C4CCC(C4)C3C2=O)c1 (stereo not drawn)
- HPGD block: -6.2%

molecule: CSc1ccccc1NC(=O)Cc1ccc(Br)cc1
- HPGD block: -10.6%

molecule: CCC(C)N1CC23C=CC(O2)C(C(=O)OC)C3C1=O (stereo not drawn)
- HPGD block: 0.6%

molecule: CCCCn1c(NCCC)nc2c1c(=O)[nH]c(=O)n2C
- HPGD block: -6.2%

molecule: CC(C)COc1ccc(C(=O)CCN2CCCCC2)cc1
- HPGD block: -16.7%

molecule: COc1ccc(NC(=O)CSc2nnc(COc3ccccc3)n2Cc2ccco2)cc1OC
- HPGD block: -11.7%

New compounds follow.
SMILES,HPGD block
CCOc1ccccc1CNC(=O)CCNC(=O)Cn1ccc2ccccc2c1=O,-19.4%
Cc1ccc(-c2ccc(CCC(=O)O)n2-c2cccc(O)c2)cc1,-16.3%
CC(C)Sc1nc2c(c(=O)[nH]1)C(c1cccs1)C1=C(CC(C)(C)CC1=O)N2 (stereo not drawn),-28.4%
COC(=O)c1cc(NC(=O)CSc2nnc(CN3CCOCC3)n2C)ccc1Cl,-4.9%
COC(=O)c1cc2ccsc2n1Cc1cc(=O)n2ccccc2n1,?
CCn1c(-c2ccccc2O)n[nH]c1=S,-21.2%
Fc1ccc2nc(Nc3nc4c(s3)CCCC4)sc2c1,-16.7%
COc1ccc(S(=O)(=O)NC(CC(=O)NCCc2ccc(OC)c(OC)c2)c2ccco2)cc1 (stereo not drawn),-6.2%
CCOC(=O)c1ccc(NC(=O)CSc2nc(SC)ns2)cc1,-7.1%
COc1ccc(Br)cc1C(=O)Nc1cccc(C)c1,-4.0%

Entries listed so far with bromine (2):
SMILES,HPGD block
CSc1ccccc1NC(=O)Cc1ccc(Br)cc1,-10.6%
COc1ccc(Br)cc1C(=O)Nc1cccc(C)c1,-4.0%

(continued)
SMILES,HPGD block
O=C(O)/C=C\C=C/c1ccc2c(c1)OCO2,-25.3%
COc1ccc(-c2nnc(SC3CCOC3=O)n2C2CCCCC2)cc1OC (stereo not drawn),-4.2%
CC1(C)CC(=O)C(C=NCCN2CCN(C(=O)c3ccc(F)cc3)CC2)=C(O)C1,4.8%
O=C(/C=C/c1ccc(Cl)c([N+](=O)[O-])c1)Nc1cccc(NC(=O)c2ccco2)c1,-17.4%
CC(C)[C@H](Nc1nc(-c2ccccc2)nc2c1oc1ccccc12)C(=O)O,0.2%
CCc1ccc(S(=O)(=O)NCc2csc(-c3cccnc3)n2)s1,?
CCOC(=O)CNC(=O)C(CC(C)C)NC(=O)C1CCCCC1 (stereo not drawn),-3.6%

Pulled by compound from the entries so far, 4 records:
SMILES,HPGD block
O=C(O)/C=C\C=C/c1ccc2c(c1)OCO2,-25.3%
CC(C)[C@H](Nc1nc(-c2ccccc2)nc2c1oc1ccccc12)C(=O)O,0.2%
O=C(/C=C/c1ccc(Cl)c([N+](=O)[O-])c1)Nc1cccc(NC(=O)c2ccco2)c1,-17.4%
CCOC(=O)CNC(=O)C(CC(C)C)NC(=O)C1CCCCC1 (stereo not drawn),-3.6%

An excerpt. The share of hits here may be higher or lower than overall.
